Source: PubChem BioAssay
Vaccinia Venus – qHTS for Stage-Specific Inhibitors of Vaccinia Orthopoxvirus: Venus Reporter Primary qHTS; Potency, µM (doses to about 36.5 µM), without a hit: at the highest dose activity change, negative = inhibition, hits mostly inhibitors; Vaccinia virus Venus reporter expression, fluorescence; 0.46% of 330,000 active; active means well fitted inhibition curve with a large enough effect; inconclusive means small, poorly fitted or top-dose-only effect; inactive means no such curve, though single readings can be large or run the other way; tested in A549 cells; further: nearly all actives have a fitted effect of over 30% in size; inactives centre near -10
Vaccinia mCherry – qHTS for Stage-Specific Inhibitors of Vaccinia Orthopoxvirus: mCherry Reporter Primary qHTS. Vaccinia virus mCherry reporter infection, fluorescence; about a quarter of the inactives have no number. Potency, µM (doses to about 36.5 µM), without a hit: at the highest dose activity change, negative = inhibition, usual class: inhibitors. 0.63% of 310,000 active. AID 720579, 2013; active = well fitted inhibition curve with a large enough effect; inconclusive = small, poorly fitted or top-dose-only effect; inactive = no such curve, though single readings can be large or run the other way; tested in A549 cells; further: nearly all actives have a fitted effect of over 35% in size; inactives centre near -10
An asterisk follows results filed as active; i = inactive; ? = inconclusive; / = not tested or not shown; & = joins results of further samples; [ ] = another dose, or the depositor's remark. On the % scale 0 is the no-effect control and ±100 the full control effect; potency means the concentration at half of the fitted maximal effect.

Under each structure: Vaccinia Venus	Vaccinia mCherry
N=C1c2ccccc2CN1NC(=O)c1ccc(Cl)cc1
    -17%	-7%
CCOC(=O)C1OC1(c1ccccc1)c1ccccc1 (stereo not drawn)
    -8%	-20%
CC(C)c1c(C(=O)N2CCN(CCO)CC2)cnn1-c1nccc(-c2cccs2)n1
    -7%	-14%
COC(=O)C1CCN(Cc2ccc(C)cc2)CC1
    -13%	/
COc1ccc(/C=N/NC(=O)c2ccc(Br)cc2)cc1Cn1cc(Cl)cn1
    0%	-13%
C/C(=N/NC(=O)CNC(=O)c1cccnc1)c1ccc([N+](=O)[O-])cc1
    2%	i
COc1ccc(NC(=O)CC(c2ccccc2)c2ccco2)cc1 (stereo not drawn)
    -9%	-21%
CN(c1cccc(NC(=O)c2ccccc2N(C)S(C)(=O)=O)c1)S(C)(=O)=O
    -6%	-15%
COc1ccc(C(=O)Nc2ccc(C(=O)N3CCCC3)cc2)cc1[N+](=O)[O-]
    -18%	i
C#CCn1cc(/C=N/NC(=O)COc2cccc3cccnc23)c2ccccc21
    -10%	-14%
CCNC(=O)CN(c1ccc(F)cc1)S(=O)(=O)c1ccc2c(c1)OCCO2
    -10%	-11%
COc1c(-c2coc3cc4c(cc3c2=O)CC(OC(C)=O)C(C)(C)O4)ccc2c1C=CC(C)(C)O2 (stereo not drawn)
    -3%	-4%
COc1ccc(S(=O)(=O)N(CC(=O)NCc2cccnc2)c2ccc(C)cc2)cc1OC
    -1%	-10%
FC(F)(F)c1ccccc1-n1c(CN2CCCCC2)n[nH]c1=S
    -14%	?
COc1cc(=O)n2c(c1C(=O)N(C)Cc1nccs1)CCN(Cc1cc(C)cc(C)c1)CC2
    -8%	-19%
Cn1c(=O)c2c(nc(NC3CCCCC3)n2CC(=O)C23CC4CC(CC(C4)C2)C3)n(C)c1=O
    ?	?
O=C(CN1CCSC1=NCc1ccccc1)c1ccc(Cl)c(Cl)c1
    -16%	-13%
Cc1ccc(NC(=O)C(OC(=O)c2ccc(F)cc2)c2ccccc2)cc1Cl (stereo not drawn)
    -16%	-15%
CC(C)(C)c1ccc(C2=CC(c3ccccc3F)n3ncnc3N2)cc1 (stereo not drawn)
    -17%	-7%
Fc1ccc(N=Cc2ccc[nH]2)cc1
    -9%	-7%

Under each structure: Vaccinia Venus	Vaccinia mCherry
Cc1cccc(/C=N\NC(=O)c2ccc(Cl)cc2)c1O
    ?	2.5µM*
O=C(/C=C/c1ccc(Cl)cc1)NC1CC2CCC1C2 (stereo not drawn)
    -21%	-8%
CC(Oc1ccccc1)C(=O)Nc1cccc(-c2nc3ccccc3[nH]2)c1 (stereo not drawn)
    -15%	/
CC(C)NC(=O)C1(C)Cc2c(-c3ccc(N(C)C)cc3)ccnc2O1 (stereo not drawn)
    -2%	26%
CCN(CC)CCN1C(=O)C(O)=C(C(C)=O)C1c1ccccc1[N+](=O)[O-] (stereo not drawn)
    3%	-17%
O=C(COC(=O)/C=C/c1cccs1)Nc1ccc(Cl)cc1F
    -7%	-2%
O=C(NC1CS(=O)(=O)CC1NCc1ccccc1)c1ccccc1 (stereo not drawn)
    -11%	i
CC(C)c1ccccc1NC(=S)NCc1ccncc1
    -14%	i
COC(=O)C1=C(c2ccc(F)cc2OCc2ccccc2)C[C@@H]2CC[C@H]1N2C(=O)NCc1ccc2c(c1)OCO2
    ?	-29%
CC(C)[C@H](NS(=O)(=O)c1ccccc1)C(=O)OCC(=O)Nc1ccc2c(c1)OCO2
    -7%	-19%
CN(Cc1ccccc1)C(=O)c1cc2ccccc2o1
    -1%	-8%
Cc1ccc(-n2ncc3c2CC(C)(C)CC3NC(=O)c2ccccn2)cc1 (stereo not drawn)
    ?	-27%
CCc1c(C)nc(SCC(=O)N2CCCCC2C)[nH]c1=O (stereo not drawn)
    -7%	i
COc1ccc(CN2CCC(=O)N([C@H](CO)Cc3ccccc3)CC2)cc1OC
    -8%&-1%	-14%&-8%
Cc1c(C(=O)NN)nc2ccccn12
    -12%	i
Cc1ccc(C2(O)C(=O)c3ccccc3C2=O)c(O)c1C
    -16%[7.34 µM]	-12%[7.34 µM]
Cc1ccc(C)c(SCC(=O)NC(=O)NCc2ccccc2)c1
    -4%	-8%
COCCNC(=O)C(C)OC(=O)C1=Cc2ccccc2OC1 (stereo not drawn)
    -10%	-1%
c1cnc(SCCCOc2ccc3ccccc3c2)nc1
    -10%	-11%
O=C(NCCCN1CCN(c2ccccc2)CC1)c1ccc2nc(CCc3ccccc3)oc2c1
    -28%	-25%

Under each structure: Vaccinia Venus	Vaccinia mCherry
C[C@@]12C(=O)N(Cc3ccco3)CC(=O)N1[C@H]1c3cc(Cl)ccc3OC[C@@H]1[C@@H]2c1ccccc1
    -12%	-5%
Cc1nc(NCCCn2ccnc2)c2oc3ccccc3c2n1
    0%	/
COCCNc1nc(-c2ccc(OC)cc2C)c2sc(-c3ccccc3)cc2n1
    -10%	9%
CC(=O)c1ccc(S(=O)(=O)N2CCn3cccc3C2c2ccc(F)c(F)c2)cc1 (stereo not drawn)
    -2%	-4%
COc1ccc(F)cc1-c1cc(NC(C)=O)c2ncc(-c3cc(OC)c(OC)c(OC)c3)n2c1
    ?	-4%
COc1ccccc1N1CCN(C(=O)Cn2ncc3c(=O)oc4ccc(C)cc4c32)CC1
    -11%	-3%
O=C(NCCN1CCN(S(=O)(=O)c2ccc([N+](=O)[O-])cc2)CC1)C(=O)Nc1ccccc1
    9%	-13%
O=C(NCC1CC1)c1ccc(-n2ccnc2)c2ccoc12
    -28%	-5%
Cc1ccc(N2Cc3ccccc3OC(C)C2=O)cc1 (stereo not drawn)
    -7%	i
COc1ccccc1-n1nnnc1SCc1ccccc1
    -22%	/
CNC(=O)c1ccc(-c2nc(-c3ccccc3)cs2)cc1
    -16%	i
COc1ccc(-c2onc(C)c2C)cc1S(=O)(=O)NCCc1ccccc1
    -19%	-25%
O=C(Nc1nc(-c2ccccn2)cs1)c1ccccc1-n1cnnn1
    -25%	1.3µM*
Cc1c(NS(=O)(=O)c2cc(NC(=O)CCN3CCCC(C)C3)ccc2Cl)c(=O)n(-c2ccccc2)n1C (stereo not drawn)
    -7%	-1%
C(=N\Nc1ncnc2sc3c(c12)CCC3)/c1ccncc1
    10µM*	11µM*
Cc1ccc(-c2noc(CN3CCN(c4ccccc4F)CC3)n2)cc1
    -1%	-7%
CCOC(=O)N1CCN(S(=O)(=O)c2ccc(C(=O)NNc3nc4ccc(Cl)cc4s3)cc2)CC1
    ?	?
CCCCNC(=S)N(C)/N=C/c1c(C)[nH]c2ccccc12
    -15%	-27%
CCN(CC)S(=O)(=O)c1ccc(NC(=O)[C@@H](NC(=O)c2cc(OC)cc(OC)c2)C(C)C)cc1
    -11%	-1%
CCC(C)(C)NC(=O)c1ccc2c(c1)OCCO2
    -11%	i

Under each structure: Vaccinia Venus	Vaccinia mCherry
Cc1cccc(C)c1OCCn1nc(C(=O)O)c2ccccc2c1=O
    -3%	/
O=c1/c(=C/c2ccc(O)c([N+](=O)[O-])c2)sc2nc3ccccc3n12
    -2%	i
CN1C(=O)C(=Cc2ccc(N3CCCCCC3)cc2)C(=O)N(C)C1=O
    -16%[7.34 µM]	i[7.34 µM]
N#Cc1ccccc1NC(=S)NC(=O)C1CCC1
    3%	i
COc1ccc(S(=O)(=O)n2ccc(C(C)Oc3ccc(-c4ccccc4)c(F)c3)n2)cc1 (stereo not drawn)
    ?	?
CCCN1CCN(S(=O)(=O)c2c(C)[nH]c(C)c2C(=O)N2CCCCC2)CC1
    -11%	-2%
Cc1c(C(=O)NCc2ccc3c(c2)OCCO3)sc(=O)n1Cc1ccccc1C(F)(F)F
    -7%	15%
O=C(NCCSCc1ccco1)Nc1cc(Cl)cc(Cl)c1
    -12%	-14%
COc1ccc(/C=C2/SC(=S)NC2=O)cc1OCc1ccccc1
    -14%	-18%
CCCCCNC(=O)C(c1ccccc1F)n1c(=O)c(-c2ccco2)nc2ccccc21 (stereo not drawn)
    9%	-8%
Cc1ccccc1C(=O)N1CCC(C(=O)N2CCCc3ccccc32)CC1
    -4%	-17%
Cc1c(NC(=S)Nc2ccccc2C(F)(F)F)cccc1[N+](=O)[O-]
    -6%	i
CN1CCN(S(=O)(=O)c2ccc(NC(=O)c3cccc(F)c3)cc2)CC1
    -5%	-20%
O=C(NCC1CCCO1)c1cnc(Cl)c(Cl)c1 (stereo not drawn)
    -15%	i
O=C(/C=C/c1ccc(O)c(O)c1)c1ccccc1O
    42%[activator]	?
COc1ccc(NC(=O)c2cccc(S(=O)(=O)N3CCOCC3)c2)cn1
    -5%	/
CCC1(CC)Cc2ccccc2C(=C(C#N)C#N)N1
    -16%	-21%
Clc1ccc2c(NCc3ccco3)ncnc2c1
    -24%	/
Cc1nn(CCO)c2c1C(=O)CCC2
    -4%	/
CCn1c(=N)c(S(=O)(=O)c2ccccc2)cc2c(=O)n3ccccc3nc21
    1%	-2%

Under each structure: Vaccinia Venus	Vaccinia mCherry
CCCCn1c(=NC(=O)c2c(-c3c(F)cccc3Cl)noc2C)c(C(=O)OCC)cc2c(=O)n3ccccc3nc21
    -2%	-3%
O=C(c1cc(=O)[nH]c2ccccc12)N1CCN(c2ccc([N+](=O)[O-])cc2)CC1
    -11%	-25%
C[C@@H]1CN([C@H](C)CO)C(=O)c2c(c3ccccc3n2C)-c2ccccc2CO[C@H]1CN(C)C(=O)CCC(F)(F)F
    -15%	-7%
Cc1ccc(Cl)cc1N1CCN(Cc2nc3ccsc3c(=O)[nH]2)CC1
    -27%	-27%
CCc1ccccc1NC(=O)CSc1nnc(CC)c(CC)n1
    -16%	-14%
Fc1ccc(-c2csc(N3CCSCC3)n2)cc1
    -7%	i
C[N+]1(CC(=O)c2ccccc2)CCc2ccccc2C1 (stereo not drawn)
    -3%	-16%
Cc1n[nH]c(=O)nc1N/N=C/c1ccc(O)c([N+](=O)[O-])c1
    -8%	-10%
CC1CC(C)CN(C(=O)COC(=O)c2cc(S(=O)(=O)N3CCOCC3)ccc2F)C1 (stereo not drawn)
    -24%	-7%
Cc1cccc(NC(=O)c2ccccc2[N+](=O)[O-])n1
    -13%	-18%
Cc1ccc(CN(C(=O)c2ccccc2[N+](=O)[O-])c2ccccn2)cc1
    -3%	-15%
COC(c1ccccc1)(c1ccccc1)C(Oc1nccc(C)n1)C(=O)O (stereo not drawn)
    -13%	-2%
Cc1ccc(-c2ccc(OCC(=O)N3CCOCC3)cc2)cc1
    -14%	-23%
CC(CN1CCN(c2ccccc2)CC1)c1ccccc1 (stereo not drawn)
    -11%	i
CC1(C(=O)NS(=O)(=O)C2CC2)CCCN(C(=O)COc2ccc(Cl)cc2Cl)C1 (stereo not drawn)
    -4%	22%
COc1cc2c(cc1NC(=O)COC(=O)CNS(=O)(=O)c1ccc(C)cc1)oc1ccccc12
    -11%	-29%
CNC(=O)c1ccc(Nc2nnc(-c3ccc(C)c(S(=O)(=O)N(C)C)c3)c3ccccc23)cc1
    -9%	-8%
Cc1ccc(C(=O)OCC(=O)c2ccc(Cl)s2)s1
    -10%	/
CCN(C(=O)c1cc2cc3ccc(OC)cc3nc2o1)c1cccc(C)c1
    -17%	-23%
CCNC(=O)N1C[C@H]2CON(C)[C@H]2C[C@H]1c1ccccc1Br
    -17%	i

Under each structure: Vaccinia Venus	Vaccinia mCherry
NCCNC(=O)Cc1ccc(NC(=O)Cc2ccc(Nc3ncnc4c3ncn4[C@@H]3O[C@H](CO)[C@@H](O)[C@H]3O)cc2)cc1
    -15%&-7%	-12%
CN(CCN1CCOCC1)C(=O)CC1C(=O)NCCN1Cc1ccccc1F (stereo not drawn)
    -10%	-16%
CCNC(=O)NC(=O)CSc1ccccc1F
    -24%	-8%
CC(=O)N1CCc2c(sc(NC(=O)Cc3ccc(C)cc3C)c2C#N)C1
    -14%	-16%
Cc1ccc(C)c(S(=O)(=O)N2CCN(C(=O)Cn3cnc4c3c(=O)n(C)c(=O)n4C)CC2)c1
    -26%	i
Cc1nn(-c2ccccc2C(F)(F)F)c(=O)c2noc(C)c12
    15%	i
Cc1ccc(NC(=O)CSCC(=O)Nc2cccc3ncccc23)cc1
    -7%	-15%

7 structures from above, sorted by heavy-atom count, highest first.
Under each structure: Vaccinia Venus	Vaccinia mCherry
CCN(CC)S(=O)(=O)c1ccc(NC(=O)[C@@H](NC(=O)c2cc(OC)cc(OC)c2)C(C)C)cc1
    -11%	-1%
CN(c1cccc(NC(=O)c2ccccc2N(C)S(C)(=O)=O)c1)S(C)(=O)=O
    -6%	-15%
COc1ccc(NC(=O)c2cccc(S(=O)(=O)N3CCOCC3)c2)cn1
    -5%	/
Cc1c(NC(=S)Nc2ccccc2C(F)(F)F)cccc1[N+](=O)[O-]
    -6%	i
Cc1nn(-c2ccccc2C(F)(F)F)c(=O)c2noc(C)c12
    15%	i
O=C(NCC1CC1)c1ccc(-n2ccnc2)c2ccoc12
    -28%	-5%
Cc1ccc(N2Cc3ccccc3OC(C)C2=O)cc1 (stereo not drawn)
    -7%	i
